Menin MLL FP FL: qHTS Assay for Inhibitors Targeting the Menin-MLL Interaction in MLL Related Leukemias: Competition With Fluorescein Labeled MLL-derived Peptide; Fluorescence polarization, fluorescein-MLL peptide displacement from menin; FP activity change, % at 61.4 µM; 290,000 tested, under 10 active; AID 1766, 2009; inconclusive = falling polarisation curve, or a change in total fluorescence; inactive = total fluorescence flat and polarisation flat or rising; no compound was filed as active; the % refers to the polarisation; negative = inhibition;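 further: % of control where 0% means no effect; inhibitors lower the polarisation; unlabelled MLL peptide was the positive control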
gsp antagonist: qHTS for Antagonists of gsp, the Etiologic Mutation Responsible for Fibrous Dysplasia/McCune-Albright Syndrome: qHTS | 0.4% of 340,000 active | Potency, µM (highest dose often 76.9 µM), inactives show at the highest dose activity change, negative = inhibition, usual class: inhibitors | gsp-mutant cells, cAMP HTRF, 30 min; control for the full effect not named in the record; active = falling curve of any shape with a large fitted effect; inconclusive = falling curve, mostly with a smaller effect; inactive = flat or rising curve; cell line not stated here;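 further: intracellular cAMP measured with PDE inhibitor Ro 20-1724 present during compound exposure; potency means the concentration at half of the fitted maximal effect; on the % scale 0 is the no-effect control and ±100 the full control effect; nearly all actives have a fitted effect of over 65% in size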
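Cells, 2000/well, grown 16–24 h in DMEM 10% FBS with 0.5 mg/ml G418, then compounds plus […] (300 uM addition stock), 30 min at 37C. cAMP read by HTRF (cAMP-d2 and anti-cAMP antibody-K in lysis buffer) after 30 min RT.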
gsp agonist: qHTS for Agonist of gsp, the Etiologic Mutation Responsible for Fibrous Dysplasia/McCune-Albright Syndrome: qHTS; AID 624287, 2012; Potency, µM (titrated, usually from 76.9 µM), without a hit: at the top dose activation (cAMP increase), most hits filed as activators; gsp mutant cells, cAMP HTRF, 30 min; control for the full effect not named in the record; 0.13% of 340,000 active; active = well fitted activation curve with a large enough effect; inconclusive = small, poorly fitted or top-dose-only effect, or another doubt; inactive = no such curve, though single readings can be large or run the other way; cell line not stated here;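 further: phosphodiesterase inhibitor Ro 20-1724 added with compounds to block cAMP breakdown; potency means the concentration at half of the fitted maximal effect; nearly all actives have a fitted effect of over 60% in size; about a fifth of the inactives were tested at one dose only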
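Cells in DMEM/10% FBS with G418 were pretreated with compounds in DMSO plus […] (300 uM stock) for 30 min at 37C. cAMP was measured by HTRF (cAMP-d2 plus anti-cAMP antibody-K) after 30 min at room temperature.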
TRPML1 inh: qHTS for Inhibitors of the Human Mucolipin Transient Receptor Potential 1 (TRPML1). 0.02% of 390,000 active. activity change, negative = inhibition, % (test concentration not listed). TRPML1-inducible cells, Ca2+ dye fluorescence, FDSS; active compounds read low; inhibition of EC80 agonist-evoked calcium signal. AID 624415, 2012; in the data active means activity change below about -50%; inconclusive means about -30% to -50%; inactive means above about -30%;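 further: stimulus is agonist 54-4 at its EC80 concentration; on the % scale 0 is the no-effect control and ±100 the full control effect; compound concentration not given in the record; the text of the record puts the active cut at -80%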
Target sequence (Q9GZU1 whole entry, looked up): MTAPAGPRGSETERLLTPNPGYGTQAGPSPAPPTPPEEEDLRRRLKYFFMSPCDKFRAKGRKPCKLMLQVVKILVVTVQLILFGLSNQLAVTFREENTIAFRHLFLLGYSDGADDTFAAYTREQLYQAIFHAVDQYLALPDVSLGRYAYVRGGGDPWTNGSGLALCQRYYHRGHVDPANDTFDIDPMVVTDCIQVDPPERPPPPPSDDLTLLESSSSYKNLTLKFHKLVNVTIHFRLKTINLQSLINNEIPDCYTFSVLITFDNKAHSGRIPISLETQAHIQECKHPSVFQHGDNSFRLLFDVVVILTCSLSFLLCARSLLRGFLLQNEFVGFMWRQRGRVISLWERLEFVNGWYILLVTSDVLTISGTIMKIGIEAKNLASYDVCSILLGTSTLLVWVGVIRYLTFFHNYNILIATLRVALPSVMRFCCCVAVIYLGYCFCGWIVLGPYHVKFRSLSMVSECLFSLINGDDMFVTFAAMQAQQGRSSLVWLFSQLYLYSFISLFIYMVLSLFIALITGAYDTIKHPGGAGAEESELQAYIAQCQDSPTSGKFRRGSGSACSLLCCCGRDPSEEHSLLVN
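TRPML1-DL cells, Tet-induced overnight (~16 h, 37 °C) at 1,500 cells/well, were loaded with Ca8 no-wash dye plus quencher for 45-90 min at room temperature. Compounds were pinned during FDSS kinetic reading; agonist 54-4 at EC80 (4 uM final) then added.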
ClpP mod: qHTS Assay for Activators of ClpP | 1.9% of 340,000 active | purified B. subtilis ClpP, FRET peptide cleavage, 20 min | AID 651965, 2013 | Potency, µM (highest dose often 57.5 µM), without a hit: top-dose activity change, negative = active | ATP-dependent Clp protease proteolytic subunit (Bacillus subtilis (strain 168)), P80244; active = well fitted falling curve with a large enough effect; inconclusive = small, poorly fitted or top-dose-only effect; inactive = no such curve, though single readings can be large or run the other way; further: potency means the concentration at half of the fitted maximal effect; the source files actives as falling curves though it sought activators and does not explain the sign; nearly all actives have a fitted effect of over 65% in size; many hits overshoot -100%
Target sequence (P80244 whole entry, looked up): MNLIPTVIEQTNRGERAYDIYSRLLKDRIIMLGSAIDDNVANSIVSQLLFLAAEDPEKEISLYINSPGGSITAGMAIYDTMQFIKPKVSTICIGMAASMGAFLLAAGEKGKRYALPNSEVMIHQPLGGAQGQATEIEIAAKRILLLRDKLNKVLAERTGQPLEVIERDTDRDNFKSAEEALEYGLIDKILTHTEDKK
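FRET quenching reversal measured ClpP activation: 10 microg/mL B. subtilis ClpP at pH 8 with the FRET-FV decapeptide, read at 430 nm after 320 nm excitation. The 20-min minus 0-min signal was scaled between DMSO/no-enzyme wells and ADEP (5.8 microM final).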
TRPML1 ag: qHTS for Agonists of the Human Mucolipin Transient Receptor Potential 1 (TRPML1); Mucolipin-1 (Homo sapiens), Q9GZU1; TRPML1-expressing cells, Ca2+ dye fluorescence, FDSS; host cell line not named in the record; reference of the full effect not given here; 0.12% of 410,000 active; activation, % (concentration not given with the values); AID 624414, 2012; in the data active = activation above about 50%; inconclusive = about 30% to 50%; inactive = below about 30%; further: 0% is about no effect; the text of the record puts the active cut at 80%
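Calcium fluorescence on an FDSS kinetic reader gave the read-out. Tet-induced TRPML1-DL cells were plated overnight, dye-loaded (Ca8 with quencher, 45-90 min, room temperature, dark), then read 110 s after compound addition, and again 110 s after 4uM final 54-4 (EC80).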
* hit, by the source's call; u = inconclusive; x = no result given; & = joins results of further samples; [ ] = remark or other dose.

Second line of a record: Menin MLL FP FL	gsp antagonist	gsp agonist	TRPML1 inh	ClpP mod	TRPML1 ag
1: CCc1ccc2[nH]c(=O)c(CN(Cc3ccccc3)C(=O)Nc3ccccc3OC)cc2c1
→ 0.1	3.3%	-13.2%	14.0	-20.5%	4.4
2: O=[N+]([O-])c1ccccc1NCc1ccc(Cl)cc1
→ -0.3	-26.1%	-32.3%[inhibitor]	27.5	0.9%	1.2
3: Cc1cc(C)n2nc(C(=O)OCC(=O)c3cc(C)n(CC4CCCO4)c3C)nc2n1 (centres undefined)
→ 6.6	3.1%	-2.9%	2.8	x	-0.1
4: Cc1cccc(OCCC(=O)Nc2ccc(F)c(Cl)c2)c1
→ -1.2	-12.3%	17.8%	27.8	-2.4%	0.0
5: O=C(COC(=O)CNS(=O)(=O)c1ccc2ccccc2c1)Nc1ccccc1Sc1ccccc1
→ 3.6	-9.4%	u	-16.2	-17.6%	3.3
6: CCC(NC(=O)c1cccc(Cn2cc([N+](=O)[O-])cn2)c1)c1ccc(C(C)C)cc1 (centres undefined)
→ -0.5	9.3%	0.0%	22.3	-1.7%	4.2
7: Cc1nn(C)c(C)c1S(=O)(=O)NC1CCCc2ccccc21 (centres undefined)
→ -0.4	5.3%	10.2%	-2.3	1.8%	0.1
8: CCOc1ccc(CCn2c3c(c(=O)[nH]c2=O)C(NC(=O)c2cccc(F)c2)(C(F)(F)F)C(=O)N3)cc1OCC (centres undefined)
→ x	x	x	-18.3	55.3%	-0.7
9: Cn1c(SCC(=O)Nc2cc(C(C)(C)C)nn2-c2ccccc2)nc2ccccc21
→ 1.3	-27.0%	-4.5%	-0.3	u	1.3
10: CCN1/C(=C2\C(=O)N(C)C(=S)N2C)C=Cc2cc(C)ccc21
→ 3.7	u	-37.8%[inhibitor]	-3.0	-19.9%	-0.5
11: CCSc1ncccc1C(=O)N[C@@H](CCSC)C(=O)OC
→ -0.1	6.0%	2.4%[15.4 µM]	-6.3	x	-0.1
12: CC1(C)Cc2ccccc2C(NNC(=O)c2ccncc2)=N1
→ -0.8	1.2%	-16.6%	-0.2	2.9%	2.2
13: O=C(OCC#CCSc1nnc(-c2ccccc2)o1)c1cccs1
→ 1.6	-15.3%	u	-11.5	-1.6%	3.1
14: COc1ccc(-c2nc3ccc(C)cn3c2NCc2ccccc2)cc1SC1CCCCC1
→ x	35.5µM*	x	47.4	3.4%	2.1
15: CS(=O)(=O)Nc1ccccc1C(=O)Nc1ccccc1C(=O)N1CCCC1
→ -6.3	-5.0%	-21.2%	11.2	-16.4%	-0.3

The list continues:
Second line of a record: Menin MLL FP FL	gsp antagonist	gsp agonist	TRPML1 inh	ClpP mod	TRPML1 ag
16: COc1c2occc2c(OC)c2c(=O)cc(C(F)(F)C(F)(F)F)oc12
→ 6.4	5.9%	-18.0%	5.0	-0.9%	-0.5
17: CCc1ccc(-n2c(=O)c3cccnc3n2CC(=O)Nc2cc(F)ccc2F)cc1
→ x	x	x	39.5	4.0%	0.6
18: O=C(Nc1ccc(SC(F)F)cc1)c1cc(-c2ccc3c(c2)OCCO3)on1
→ x	x	x	-1.9	-4.7%	-0.6
19: Cc1ccc(C(=O)Nc2ccccc2N2CCN(C(=O)C(C)C)CC2)cc1
→ -1.5	-5.0%	-29.0%	18.8	0.6%	2.2
20: COCC(C)N=Cc1c(O)[nH]c2ccccc12 (centres undefined)
→ 2.4	-10.5%	5.9%	-4.8	-0.6%	-0.2
21: COCCN1Cc2cccc(C(=O)N3CCN(c4cc(C)ccc4C)CC3)c2C1=O
→ -0.7	-6.1%	-46.2%[inhibitor]	-16.4	-1.3%	-0.4
22: CCc1ccc(NC(=O)C2CCCN(S(=O)(=O)c3cccnc3)C2)cc1 (centres undefined)
→ 2.2	11.8%	19.8%	-2.1	-0.1%	0.0
23: O=C(Nc1cccnc1Cl)c1cc(-c2ccco2)on1
→ 7.2	-4.6%	-50.1%[inhibitor]	24.5	-3.2%	1.3
24: CCOc1ccc(NC(=O)CSc2nnc(NC(=O)C3CC3)s2)cc1
→ 1.0	16.5%	-7.8%[15.4 µM]	-2.2	x	-0.3
25: CC(=O)N1CCc2cc(S(=O)(=O)CCC(=O)NCCc3ccccc3)ccc21
→ x	-10.9%	6.0%	16.9	0.7%	3.3
26: O=C(CN1C(=O)NC2(CCCC2)C1=O)Nc1nc2ccccc2[nH]1
→ x	6.7%	25.6%	-8.4	-13.0%	-0.1
27: COc1ccc(-c2cc(C(F)(F)F)n3nc(C(=O)N(C)Cc4ccccc4)cc3n2)cc1OC
→ -0.6	-11.9%	u	x	-10.6%	x
28: Cc1cc(C)cc(OCC(=O)N2CCC(c3nc4ccccc4o3)CC2)c1
→ x	x	x	-3.0	0.0%	2.3
29: COCCn1c(=N)c(S(=O)(=O)c2ccc(F)cc2)cc2c(=O)n3cccc(C)c3nc21
→ x	2.4%	-61.1%[inhibitor]	-5.4	-4.2%	0.5
30: O=C(C1CCCO1)N(c1ccc(F)cc1)C1C=CS(=O)(=O)C1 (centres undefined)
→ -1.4	17.8%	0.6%[15.4 µM]	6.1	x	-1.1

(next part)
Second line of a record: Menin MLL FP FL	gsp antagonist	gsp agonist	TRPML1 inh	ClpP mod	TRPML1 ag
31: CC(OC(=O)C1CCN(c2ccc(C(F)(F)F)cn2)CC1)C(=O)Nc1ccc(S(N)(=O)=O)cc1 (centres undefined)
→ x	0.6%	18.5%	18.8	u	0.4
32: O=C1C2CCCCN2C(=O)N1CCN1CCN(c2ccc([N+](=O)[O-])cc2)CC1 (centres undefined)
→ -1.2	5.3%	21.8%	-28.0	0.4%	0.1
33: Nc1ccccc1SCc1cn2cccnc2n1
→ 4.9	-10.0%	26.3%	-2.1	-4.2%	0.0
34: CCOc1ncccc1C(=O)OCC(=O)c1ccc(OC)c(OC)c1
→ 1.2	-0.5%	11.9%	-1.7	-0.7%	-0.4
35: CC(=O)c1ccc(-c2ccc(C(=O)Nc3nc(-c4ccccn4)cs3)o2)cc1
→ x	-21.3%	-8.4%	4.6	4.1%	2.8
36: COCCNC(=O)CSc1nc2nn(-c3ccccc3)c(=O)c-2c2n1CCCCC2
→ 0.1	u	1.5%[15.4 µM]	-10.0	x	-0.4
37: CC(=O)Nc1ccc2c(c1)NC(=O)CC2
→ -1.8	7.7%	u	-20.0	x	-0.2
38: CC(=O)N1CCN(C(=O)c2ccc(Cl)c(S(=O)(=O)N3CCCCCC3)c2)CC1
→ x	-0.7%	3.0%	15.3	-1.9%	0.0
39: COc1cc2c(cc1OC)-c1nnc(C)n1C1(CCCC1)C2
→ -1.4	0.8%	-60.9%	23.1	-21.3%	-0.7
40: COc1ccc(Cn2c(O)c(C=Nc3ccccc3)c3ccccc3c2=O)cc1
→ 6.2	1.7%	16.4%[15.4 µM]	38.4	x	0.7
41: COc1ccc(C)cc1NC(=O)CCc1c(C)nn(-c2ccc(N3CCOCC3)nn2)c1C
→ x	x	x	9.4	-3.4%	0.1
42: Cc1ccc(S(=O)(=O)N2CCN(C(=O)c3ccccc3OCc3c(C)noc3C)CC2)cc1C
→ x	-7.5%	21.2%[15.4 µM]	7.1	x	1.6
43: COc1ccc(NC(=O)CC2Oc3ccccc3NC2=O)cc1 (centres undefined)
→ 0.4	0.9%	-59.9%[inhibitor]	-9.2	-0.6%	-0.3
44: O=C(NCc1ccco1)C1CC(c2ccccc2C(F)(F)F)=NO1 (centres undefined)
→ 8.1	6.1%	x	-4.1	0.3%	-0.9
45: COc1ccc(OC)c(Nc2nc(NCCO)c3ccccc3n2)c1
→ -1.8	0.9%	17.6%	0.2	x	-0.8

The list goes on (6 carried over from the part before).
40. COc1ccc(Cn2c(O)c(C=Nc3ccccc3)c3ccccc3c2=O)cc1
41. COc1ccc(C)cc1NC(=O)CCc1c(C)nn(-c2ccc(N3CCOCC3)nn2)c1C
42. Cc1ccc(S(=O)(=O)N2CCN(C(=O)c3ccccc3OCc3c(C)noc3C)CC2)cc1C
43. COc1ccc(NC(=O)CC2Oc3ccccc3NC2=O)cc1 (centres undefined)
44. O=C(NCc1ccco1)C1CC(c2ccccc2C(F)(F)F)=NO1 (centres undefined)
45. COc1ccc(OC)c(Nc2nc(NCCO)c3ccccc3n2)c1
46. CCOc1cc(-c2nc(-c3ccc(-c4ccccc4)nc3OCC)no2)cc(OCC)c1OCC
47. Cc1ccc(C(C)(C)C)cc1S(=O)(=O)Nc1ncnc2sccc12
48. CC(=O)c1ccccc1OC(=O)c1ccco1
49. CC(Oc1ccc(F)cc1)C(=O)Nc1cc(S(=O)(=O)N2CCOCC2)ccc1N1CCCC1 (centres undefined)
50. O=C(Cc1cccc2ccccc12)NNC(=O)c1ccc(Br)o1
51. COC(=O)c1ccc(NC(=O)C(C)Sc2nc(=O)cc(N)n2CCc2ccccc2)cc1 (centres undefined)
52. O=C(NCCc1cccs1)c1ccc(CS(=O)Cc2ccc(Cl)cc2)o1 (centres undefined)
53. COC(=O)C[C@H]1c2cc(C(F)(F)F)ccc2S(=O)(=O)N1C1CCCCC1
54. Cc1ccc(NC(=O)NCC2CCN(Cc3cccc(Cl)c3)CC2)cc1Cl
screen / no.	40	41	42	43	44	45	46	47	48	49	50	51	52	53	54
Menin MLL FP FL	6.2	x	x	0.4	8.1	-1.8	x	x	2.2	-8.5	0.1	x	x	x	-3.3
gsp antagonist	1.7%	x	-7.5%	0.9%	6.1%	0.9%	x	-3.1%	12.7%	1.5%	15.1%	x	-14.0%	-0.4%	-12.1%
gsp agonist	16.4%[15.4 µM]	x	21.2%[15.4 µM]	-59.9%[inhibitor]	x	17.6%	x	-17.9%	-21.9%	-0.4%	u	x	-13.6%	x	-21.5%[15.4 µM]
TRPML1 inh	38.4	9.4	7.1	-9.2	-4.1	0.2	4.0	-3.5	-6.9	-5.0	-12.8	-4.2	2.8	13.2	-7.9&26.1
ClpP mod	x	-3.4%	x	-0.6%	0.3%	x	-5.0%	0.7%	-0.6%	-1.6%	-2.9%	-4.0%	1.0%	-0.3%&2.0%	-3.0%
TRPML1 ag	0.7	0.1	1.6	-0.3	-0.9	-0.8	0.0	-0.8	0.3	-0.5	-0.4	2.4	-0.2	4.0&-0.7	0.7&-0.6
